MLL AF4-AF9 inh: inhibitors of AF4 peptide binding to AF9, primary screen, biochemical, AlphaScreen, biotin-AF4 peptide, FLAG-AF9, single point | Protein AF-9 (Homo sapiens), P42568 | inhibition, % at 10 µM | actives 0.47% (n = 350,000);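 active = every replicate reaching a set inhibition limit, whatever the replicate mean, cut at about 25% in these data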;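 note: 0% = plate neutral control median and 100% = total signal loss; the record names both 10 and 1 µM as test concentration; the first replicate is given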
Target sequence (P42568 whole entry, looked up): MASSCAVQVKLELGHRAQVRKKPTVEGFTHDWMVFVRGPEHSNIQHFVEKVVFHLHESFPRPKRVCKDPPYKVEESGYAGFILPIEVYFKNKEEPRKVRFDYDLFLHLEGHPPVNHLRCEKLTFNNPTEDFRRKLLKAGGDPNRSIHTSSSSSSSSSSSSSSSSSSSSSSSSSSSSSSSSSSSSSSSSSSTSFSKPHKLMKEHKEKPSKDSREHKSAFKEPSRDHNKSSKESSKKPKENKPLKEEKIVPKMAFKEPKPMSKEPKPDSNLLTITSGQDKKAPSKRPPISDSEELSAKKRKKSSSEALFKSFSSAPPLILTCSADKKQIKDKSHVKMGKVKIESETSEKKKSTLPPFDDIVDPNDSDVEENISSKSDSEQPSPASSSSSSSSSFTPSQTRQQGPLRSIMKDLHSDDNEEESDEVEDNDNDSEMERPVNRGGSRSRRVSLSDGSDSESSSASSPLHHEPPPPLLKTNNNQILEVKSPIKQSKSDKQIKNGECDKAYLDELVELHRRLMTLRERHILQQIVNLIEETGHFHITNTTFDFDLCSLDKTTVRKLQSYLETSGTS
An asterisk follows results filed as active. Some of the compounds tested; the hit share may differ from the screen's.

SMILES	MLL AF4-AF9 inh
COC(=O)c1ccc2nc(-c3ccc(Cl)cc3)c(Cc3ccccc3OC)n2c1	0.2
CCCN1[C@@H]2c3ccc(C4=CCCCC4)c(=O)n3C[C@@H]2[C@@H](CO)[C@@H]1C(=O)NCCCN(C)C	2.2
C[C@@H]1CN([C@H](C)CO)C(=O)c2cccc(NC(=O)Nc3ccc4c(c3)OCO4)c2O[C@H]1CN(C)Cc1ccc(Oc2ccccc2)cc1	1.8
O=C(Nc1ccccc1)N1CC(=O)N2[C@H](CO)[C@H](c3ccc(C#CC4CC4)cc3)[C@@H]2C1	-0.2
C[C@H]1CN([C@@H](C)CO)C(=O)CCCn2cc(nn2)CO[C@H]1CN(C)C(=O)C1CCCCC1	0.6
O=C(NCc1ccccc1Cl)[C@@H]1[C@@H](CO)[C@@H]2Cn3c(cccc3=O)[C@@H]2N1C(=O)C1CCCC1	-7.1
FC(F)(F)c1ccccc1Cc1c(-c2ccco2)nc2c3ccccc3ccn12	8.2
O=C1Nc2ccccc2N(C(=O)c2ccc(-c3ccccc3)cc2)C1c1nc2ccccc2[nH]1 (centres undefined)	2.1
CC(CNCCCn1cnc2c(OCc3ccccc3)ncnc21)c1ccccc1 (centres undefined)	3.4
C[C@@H](NC(=O)C[C@@H]1C=C[C@@H](NC(=O)Cc2ccccn2)[C@H](CO)O1)c1ccccc1	0.0
CC(C)NC(=O)NCC[C@H]1CC[C@H](NS(=O)(=O)c2ccc(Oc3ccccc3)cc2)[C@@H](CO)O1	12
COCC(=O)Nc1ccc2c(c1)C(=O)N(C)C[C@H](OC)[C@H](C)CN(Cc1cccc(F)c1)[C@@H](C)CO2	-4.5

2 entries picked at random from those above:
SMILES	MLL AF4-AF9 inh
C[C@@H](NC(=O)C[C@@H]1C=C[C@@H](NC(=O)Cc2ccccn2)[C@H](CO)O1)c1ccccc1	0.0
COC(=O)c1ccc2nc(-c3ccc(Cl)cc3)c(Cc3ccccc3OC)n2c1	0.2

More records follow:
SMILES	MLL AF4-AF9 inh
CC(C)c1ccc(NC(=O)C2(C)Cc3c(-c4ccccc4)ccnc3O2)cc1 (centres undefined)	4.0
Cc1cccc(C(=O)N2CCC(=O)N([C@H](COCc3cccc(C(F)(F)F)c3)Cc3ccccc3)CC2)c1	-1.1
Cc1noc(C)c1NC(=O)N(C)C[C@H]1OCCCC[C@H](C)Oc2ccc(NC(=O)C3CCCCC3)cc2C(=O)N([C@@H](C)CO)C[C@@H]1C	-0.4
Cc1noc(C)c1NC(=O)Nc1ccc2c(c1)CC(=O)N([C@@H](C)CO)C[C@@H](C)[C@H](CN(C)C(=O)Nc1cccc3ccccc13)O2	-0.4
CCC(=O)N1CC[C@@H]2[C@H]1c1cc(-c3ccc(C(=O)N(C)C)cc3)ccc1N[C@@H]2CO	-0.5
CCCNC(=O)N(C)C[C@@H]1Oc2ncc(C#Cc3ccccc3F)cc2C(=O)N([C@@H](C)CO)C[C@H]1C	-1.6
C[C@H]1CN([C@@H](C)CO)C(=O)c2cc(NC(=O)Cc3ccccc3)ccc2O[C@H]1CN(C)S(=O)(=O)c1ccc(Cl)cc1	-29
COc1ccc2c3c(n(C)c2c1)[C@H](CO)N(CC1CC1)CC31CCN(C(=O)CN2CCOCC2)CC1	0.7
C[C@H](CO)N1C[C@H](C)[C@H](CN(C)S(C)(=O)=O)Oc2ccc(NC(=O)C3CCCCC3)cc2CC1=O	-2.9
COc1ccccc1C(=O)N1C[C@H]2[C@@H](c3ccccc31)[C@@H](CO)N2C(=O)C1CCOCC1	-0.3
COc1ccc2c3c([nH]c2c1)[C@@H](CO)N(Cc1cccnc1)CC31CN(C(=O)CN(C)C)C1	-0.6
C[C@@H]1CN([C@@H](C)CO)S(=O)(=O)c2ccc(C#Cc3ccncc3)cc2O[C@H]1CN(C)C(=O)Nc1ccc2c(c1)OCO2	6.7
COCC#Cc1cnc2c(c1)C(=O)N([C@H](C)CO)C[C@@H](C)[C@@H](CN(C)Cc1ccccc1)O2	-3.2
C[C@H](CO)N1C[C@H](C)[C@H](CN(C)C(=O)Nc2ccc(N3CCN(C)CC3)cc2)OCc2cn(nn2)CCCC1=O	4.0
Cc1noc(C)c1S(=O)(=O)Nc1ccc2c(c1)C(=O)N([C@H](C)CO)C[C@H](C)[C@@H](CN(C)Cc1ccc(-c3ccccc3)cc1)O2	3.3
CN(C)C(=O)C[C@@H]1CC[C@H]2[C@H](COc3ccc(NC(=O)NCc4ccccc4)cc3C(=O)N2C)O1	-0.4
C[C@@H]1CN([C@@H](C)CO)C(=O)c2cccc(NS(=O)(=O)c3ccc(Cl)cc3)c2O[C@@H]1CN(C)Cc1ccc(Oc2ccccc2)cc1	0.9
CNC[C@@H]1Oc2ccc(NC(=O)Nc3cccc4ccccc34)cc2CC(=O)N([C@H](C)CO)C[C@H]1C	0.5
COc1ccc(NC(=O)N[C@H]2CC[C@@H](CCn3cc(-c4ccccc4F)nn3)O[C@@H]2CO)cc1	-1.6
C[C@@H]1CCCCO[C@H](CN(C)S(=O)(=O)c2ccc(F)cc2)[C@H](C)CN([C@@H](C)CO)C(=O)c2cc(NS(=O)(=O)c3cn(C)cn3)ccc2O1	-12
COc1ccc(CN2C(C)C3C(C)=CC2C2C(=O)N(C)C(=O)C32)cc1 (centres undefined)	0.5
C[C@H](O)C#Cc1cnc2c(c1)C(=O)N([C@@H](C)CO)C[C@H](C)[C@H](CN(C)C(=O)CC1CC1)O2	-1.2
C/C=C/c1ccc([C@H]2[C@H]3CN(C(=O)Nc4ccc(F)cc4)CCCCN3[C@H]2CO)cc1	-2.0
CCC(=O)Nc1ccc2c(c1)OC[C@@H](C)N(C(=O)COC)C[C@@H](C)[C@@H](OC)CN(C)C2=O	0.6

6 compounds from above, sorted by SMILES length, falling.
SMILES	MLL AF4-AF9 inh
C[C@@H]1CN([C@@H](C)CO)C(=O)c2cccc(NS(=O)(=O)c3ccc(Cl)cc3)c2O[C@@H]1CN(C)Cc1ccc(Oc2ccccc2)cc1	0.9
C[C@H](O)C#Cc1cnc2c(c1)C(=O)N([C@@H](C)CO)C[C@H](C)[C@H](CN(C)C(=O)CC1CC1)O2	-1.2
CN(C)C(=O)C[C@@H]1CC[C@H]2[C@H](COc3ccc(NC(=O)NCc4ccccc4)cc3C(=O)N2C)O1	-0.4
COCC#Cc1cnc2c(c1)C(=O)N([C@H](C)CO)C[C@@H](C)[C@@H](CN(C)Cc1ccccc1)O2	-3.2
C/C=C/c1ccc([C@H]2[C@H]3CN(C(=O)Nc4ccc(F)cc4)CCCCN3[C@H]2CO)cc1	-2.0
COc1ccc(CN2C(C)C3C(C)=CC2C2C(=O)N(C)C(=O)C32)cc1 (centres undefined)	0.5

The list goes on:
SMILES	MLL AF4-AF9 inh
C[C@@H]1CN([C@H](C)CO)S(=O)(=O)c2ccc(-c3cncnc3)cc2O[C@H]1CN(C)Cc1cccnc1	13
CC(=O)Nc1cccc(-c2ccnc3c2CC(C)(C(=O)NC(C)C)O3)c1 (centres undefined)	-0.8
CCc1nc2ccc(C(=O)NCc3ccc(OC)cc3)cn2c1N(C)CCC(C)C	-0.6
O=C(C[C@H]1C[C@@H]2c3cc(NC(=O)Cc4ccncc4)ccc3O[C@@H]2[C@H](CO)O1)NCc1ccccn1	0.1
COc1ccc(-c2csc(C(C)(O)c3ccc(OC)cc3)n2)cc1 (centres undefined)	-4.4
C[C@@H]1CN([C@@H](C)CO)C(=O)c2cccc(NC(=O)C3CC3)c2O[C@H]1CN(C)C(=O)Nc1ccc(F)cc1	-1.1
CC(=O)N(C)C[C@@H]1Oc2ncc(C#CCc3ccccc3)cc2C(=O)N([C@@H](C)CO)C[C@H]1C	-0.9
CCCN(C)C[C@@H]1Oc2ncc(/C=C/c3ccccc3)cc2C(=O)N([C@H](C)CO)C[C@@H]1C	4.7
COc1ccc2c3c(n(C)c2c1)[C@H](CO)N(Cc1ccccc1)CC31CN(C(=O)Nc2cccc(F)c2)C1	-1.2
C[C@@H]1CN([C@H](C)CO)S(=O)(=O)c2ccc(C3=CCCC3)cc2O[C@@H]1CN(C)C(=O)CC1CC1	1.7
CC(=O)N1[C@@H]2c3ccc(-c4cccc(F)c4)c(=O)n3C[C@@H]2[C@@H](CO)[C@@H]1C(=O)NCC1CC1	-0.5
COCC(=O)Nc1ccc2c(c1)OC[C@H](C)N(C(C)=O)C[C@H](C)[C@H](OC)CN(C)C2=O	0.3
O=C(C[C@@H]1CC[C@H]2[C@@H](COC[C@@H](O)CN2C(=O)c2ccncc2)O1)NCc1cc(F)cc(F)c1	-11
COCC(=O)N1[C@H](CO)[C@@H](c2ccc(C#Cc3ccccc3F)cc2)[C@@H]1C#N	1.3
COc1cccc(S(=O)(=O)N[C@H]2CC[C@@H](CC(=O)NC3CCC3)O[C@@H]2CO)c1	0.3
Cc1ccc(S(=O)(=O)N(C)C[C@@H]2Oc3ccc(NC(=O)c4ccncc4)cc3C(=O)N([C@H](C)CO)C[C@H]2C)cc1	0.1
COc1ccccc1C#Cc1cnc2c(c1)C(=O)N([C@H](C)CO)C[C@@H](C)[C@H](CN(C)C(=O)c1ccc3c(c1)OCO3)O2	-6.5
C[C@H]1CN([C@@H](C)CO)C(=O)c2cccc(NC(=O)C3CCCCC3)c2O[C@@H]1CN(C)Cc1ccc(Oc2ccccc2)cc1	1.6
C[C@@H]1CN([C@H](C)CO)C(=O)c2cccc(NC(=O)C3CC3)c2O[C@@H]1CN(C)C(=O)Nc1ccc(C(F)(F)F)cc1	-1.2
CCCNC(=O)N1[C@H](CO)[C@H](c2ccccc2)[C@H]1CNC(=O)c1ccccc1	-3.9
CN1C(=O)c2cc(NC(=O)c3ccccc3)ccc2OC[C@@H]2O[C@H](CC(=O)O)CC[C@@H]21	-0.1
Cc1ccc(S(=O)(=O)N(C)C[C@H]2Oc3c(cccc3N(C)C)C(=O)N([C@H](C)CO)C[C@@H]2C)cc1	-0.7
C[C@@H]1CCCCO[C@H](CN(C)C(=O)c2ccccc2)[C@@H](C)CN([C@H](C)CO)C(=O)c2cc(NC(=O)Nc3ccc(F)cc3)ccc2O1	-8.9
O=C(NC1CCC1)[C@@H]1[C@@H](CO)[C@@H]2Cn3c(ccc(-c4ccncc4)c3=O)[C@H]1N2Cc1cocn1	0.1
C[C@@H]1CCCCO[C@@H](CN(C)CC2CCCCC2)[C@H](C)CN([C@@H](C)CO)C(=O)c2cc(NC(=O)Nc3ccc4c(c3)OCO4)ccc2O1	-14
[N-]=[N+]=NCc1ccccc1C[C@]1(C(=O)N2CCCCC2)N=C(c2ccc(OCCCO)cc2)O[C@H]1c1ccccc1	2.3
Cc1cc2c(=O)n(C)c(SCC(=O)NCC3CCCO3)nc2s1 (centres undefined)	-1.4
Cc1cc(C(=O)Nc2ccc3c(c2)C(=O)N(C)[C@@H]2CC[C@H](CC(=O)N[C@@H](C)c4ccccc4)O[C@H]2CO3)no1	-1.5
C[C@@H]1CN([C@@H](C)CO)C(=O)c2cc(NC(=O)NC3CCCCC3)ccc2O[C@@H](C)CCCCO[C@H]1CN(C)C(=O)NC1CCCCC1	0.5
COc1ccc2c3c([nH]c2c1)[C@H](CO)N(C(=O)Nc1ccc(F)cc1)CC31CN(S(=O)(=O)c2cccc(F)c2)C1	-1.5
C[C@@H]1CN([C@@H](C)CO)C(=O)c2cc(C3=CCCCC3)cnc2O[C@@H]1CN(C)Cc1ccccc1	-0.6
O=C(NC1CCCC1)[C@@H]1[C@@H](CO)[C@@H]2Cn3c(ccc(C4=CCCCC4)c3=O)[C@H]1N2CC1CC1	-2.0
COc1ccc(COC[C@]23NC(=S)N(C(=O)c4ccccc4)[C@H](c4ccccc4O2)[C@H]3CO[Si](C)(C)C(C)(C)C)cc1	-1.3
C[C@@H]1CN([C@H](C)CO)S(=O)(=O)c2ccc(C#Cc3cccc(F)c3)cc2O[C@@H]1CN(C)S(=O)(=O)c1cn(C)cn1	0.9
COCC#Cc1cnc2c(c1)C(=O)N([C@H](C)CO)C[C@H](C)[C@H](CN(C)C(=O)C1CC1)O2	0.6
Cc1ccc(S(=O)(=O)N[C@@H]2C=C[C@@H](CC(=O)NCc3ccccc3F)O[C@H]2CO)cc1	2.3
O=C(C[C@H]1CC[C@H](NC(=O)Cc2ccccn2)[C@@H](CO)O1)NCCCN1CCOCC1	-2.2
C[C@@H]1CN([C@H](C)CO)C(=O)c2cc(NC(=O)CCCN(C)C)ccc2O[C@@H](C)CCCCO[C@@H]1CN(C)S(=O)(=O)c1ccccc1	2.5
O=C(c1cnccn1)N1CC(=O)N2[C@H](CO)[C@H](c3ccc(C#CC4CCCCC4)cc3)[C@@H]2C1	8.0
COc1ccccc1-c1cnc2c(c1)C(=O)N([C@@H](C)CO)C[C@@H](C)[C@@H](CN(C)Cc1ccncc1)O2	-1.5
O=C1Nc2c(Cl)cccc2C1=O	-2.0
O=C(c1cccc(F)c1)N1CC(=O)N2[C@@H](CO)[C@H](c3ccc(-c4ccccc4F)cc3)[C@@H]2C1	-3.8
COc1ccc(C#Cc2ccc3c(c2)O[C@H](CN(C)C(C)=O)[C@@H](C)CN([C@@H](C)CO)S3(=O)=O)cc1	9.4
O=C(C1CC1)N1CC[C@@H]2[C@H](CO)Nc3ccc(-c4ccc(F)cc4)cc3[C@@H]21	0.2
CC(C)[C@H](NC(=O)OC(C)(C)C)c1cc(C(=O)NCCO)c(N)s1	2.8
Cc1ccc(S(=O)(=O)Nc2ccc3c(c2)C(=O)N([C@H](C)CO)C[C@H](C)[C@@H](CN(C)S(=O)(=O)c2ccc(C)cc2)O3)cc1	-0.1
CC(C)C[C@H]1CN(CCCC[C@@H]2CNC(=O)C(=O)N2CC2CCCCC2)C(=O)C(=O)N1CCC1CCCCC1	-0.9
CCS(=O)(=O)N1CC(=O)N2[C@H](CO)[C@@H](c3ccc(C#CC4CCCC4)cc3)[C@@H]2C1	3.4
